From PubChem BioAssay
TRPV1 potentiator: HTS Assay for Compounds that Act as Potentiators of the Vanilloid Receptor 1. Transient receptor potential cation channel subfamily V member 1 (Homo sapiens), Q8NER1. hit rate 0.02% among 320,000. potentiation, % at 8.33 µM. TRPV1-expressing cells, Fluo-8 calcium influx, capsaicin EC20 potentiation; host cell line not named in the record; control for the full effect not named in the record; active means potentiation above 80%; inconclusive means 30% to 80%; inactive means below 30%; further: 0% is about no effect
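TRPV1-expressing cells were cultured overnight at 35.5C and loaded with Fluo-8 calcium dye for 40 to 90 min at room temperature. After a 10 s baseline, compound was added and calcium influx was read kinetically for 3 min (ex 480/em 520 nm).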
PINK1 modulator: A Quantitative High throughput Screen to Identify Chemical Modulators of PINK1 Expression | PINK1 immunofluorescence, high-content cytometry, 24 h | Potency, µM (top dose mostly 76.6 µM), for the others: at the top dose activation (PINK1 increase), most hits filed as activators | hit rate 0.2% among 410,000 | AID 624263, 2012; active = well fitted activation curve with a large enough effect; inconclusive = small, poorly fitted or top-dose-only effect; inactive = flat fitted curve, though single readings scatter; cell line not stated here;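 further: potency means the concentration at half of the fitted maximal effect; % of control where 0% means no effect; nearly all actives have a fitted effect of over 65% in size; a mitochondrial uncoupler was the plate control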
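Fluorescence from anti-PINK1 antibody, together with nuclear and cell stains, was scanned on a laser-scanning cytometer. Before staining, stable-line cells were incubated 24 hours with compounds at 5 concentrations; primary antibody 12 h at 10 degrees C.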
Six1-Eya2 inh: qHTS Assay for Inhibitors of the Six1/Eya2 Interaction. Homeobox protein SIX1 (Homo sapiens) + Protein phosphatase EYA2 (Homo sapiens), …. AlphaScreen GST-Six1/His-Eya2 binding, biochemical; stronger effect = lower value; control for the full effect not named in the record. activity change, % (no concentration beside the values). hit rate 0.56% among 360,000; in the data active = activity change below about -65%; inconclusive = about -30% to -65%; inactive = above about -30%; further: on the % scale 0 is the no-effect control and ±100 the full control effect; compound concentration not given in the record
Target sequence (O00167 whole entry, looked up): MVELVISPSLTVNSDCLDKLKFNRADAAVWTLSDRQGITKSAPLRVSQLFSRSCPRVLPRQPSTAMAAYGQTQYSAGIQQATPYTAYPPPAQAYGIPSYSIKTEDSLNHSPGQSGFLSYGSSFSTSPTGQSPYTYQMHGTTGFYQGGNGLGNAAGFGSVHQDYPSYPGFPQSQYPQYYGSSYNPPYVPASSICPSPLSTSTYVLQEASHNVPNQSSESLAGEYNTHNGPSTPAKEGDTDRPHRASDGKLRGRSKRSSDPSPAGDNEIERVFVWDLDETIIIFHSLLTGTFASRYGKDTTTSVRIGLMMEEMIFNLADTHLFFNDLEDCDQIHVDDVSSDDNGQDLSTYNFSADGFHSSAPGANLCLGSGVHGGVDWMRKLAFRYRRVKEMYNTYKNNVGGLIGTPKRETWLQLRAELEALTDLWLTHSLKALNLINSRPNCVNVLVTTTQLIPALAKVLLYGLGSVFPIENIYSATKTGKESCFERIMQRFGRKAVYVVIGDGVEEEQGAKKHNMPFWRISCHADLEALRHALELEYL
Target sequence (Q15475 whole entry, looked up): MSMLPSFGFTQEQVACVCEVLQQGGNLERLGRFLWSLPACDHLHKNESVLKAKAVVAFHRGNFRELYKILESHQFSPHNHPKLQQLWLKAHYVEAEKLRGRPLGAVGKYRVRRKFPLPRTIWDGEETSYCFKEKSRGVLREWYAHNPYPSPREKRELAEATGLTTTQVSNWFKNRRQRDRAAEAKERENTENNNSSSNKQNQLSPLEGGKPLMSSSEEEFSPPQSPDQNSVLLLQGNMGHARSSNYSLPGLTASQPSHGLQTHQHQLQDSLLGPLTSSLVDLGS
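AlphaScreen luminescence read after one hour at 37 °C in darkness. Pin-transferred compounds met GST-Six1 and His-Eya2 protein (5X stock 250 nM/500 nM) plus glutathione donor and Ni-chelate acceptor beads (5X, 50 ug/mL).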
Sfp inh: qHTS Assay for Inhibitors of Bacillus subtilis Sfp phosphopantetheinyl transferase (PPTase) | 4'-phosphopantetheinyl transferase ffp (Bacillus subtilis), Q9F4F7 | Biochemical Sfp PPTase activity, qHTS | Potency, µM, for inactives: max response, negative = inhibition, usual class: inhibitors | hit rate 3.5% among 310,000; active means well fitted inhibition curve with a large enough effect; inconclusive means small, poorly fitted or top-dose-only effect, or another doubt; inactive means no such curve, though single readings can be large or run the other way;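 further: the enzyme is Sfp with the accession as filed and its product quenches rhodamine fluorescence; potency means the concentration at half of the fitted maximal effect; 0% = enzyme reaction without inhibitor and -100% = no enzyme wells; top concentration of the series not given in the record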
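Fluorescence-quenching assay: 15 nM Sfp-PPTase preincubated 15 min at room temperature with compound, then 5 uM rhodamine-CoA and 12.5 uM BHQ-2-labelled YbbR peptide added. Fluorescence (ex 525/em 598 nm) read at start and after 30 min; difference gives rate.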
D2 PAM: Beta-Arrestin HTS for Positive Allosteric Modulators of the Human D2 Dopamine Receptor: Potentiators; D(2) dopamine receptor (Homo sapiens), P14416; DiscoveRx D2 beta-arrestin cells, luminescence, 90 min; 100% = 57 uM dopamine signal; potentiation, % (test concentration not listed); hit rate 0.23% among 360,000; active = potentiation of 50% or more; inconclusive = 30% to 50%; inactive = 30% or less;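 further: compound concentration not given in the record; tested on top of an EC20 dose of dopamine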
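D2 cells co-treated with compound plus 50 nM dopamine (EC20) for 90 min at 37 deg C to detect potentiation. Beta-arrestin recruitment was read as enzyme-fragment luminescence after 1 h at ambient temperature. Full response was set by 57 uM dopamine.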
D2 agonist: Beta-Arrestin HTS for Positive Allosteric Modulators of the Human D2 Dopamine Receptor: Agonists; D(2) dopamine receptor (Homo sapiens), P14416; DiscoveRx PathHunter D2 beta-arrestin, luminescence, 90 min; 100% = 57 uM dopamine signal; activation, % (no concentration beside the values); hit rate 0.084% among 360,000; AID 624465, 2012; in the data active = activation above about 40%; inconclusive = about 15% to 40%; inactive = below about 15%; further: compound concentration not given in the record; the text of the record calls up to 30% inactive
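DiscoveRx PathHunter D2 beta-arrestin cells (2,100/well) attached overnight, then compound-stimulated 90 min at 37 C in HBSS/10 mM HEPES/0.1% Tween-20 buffer; beta-galactosidase complementation read by luminescence after 1 h at ambient temperature. Dopamine 57 uM final (EC100) as control.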
CtBP-E1A blk: qHTS Assay for Inhibitors of the CtBP/E1A Interaction; CtBP / adenovirus E1A interaction (AlphaScreen); AlphaScreen GST-E1A/His-CtBP binding, 1536-well; stronger effect = lower value; control for the full effect not named in the record; activity change, % (concentration not given with the values); hit rate 0.49% among 340,000; AID 651724, 2012; in the data active means activity change below about -65%; inconclusive means about -30% to -65%; inactive means above about -30%; further: on the % scale 0 is the no-effect control and ±100 the full control effect
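GST-E1A and His-tagged CtBP (125 nM each as 5X stock) were preincubated with pin-transferred compound for 2 h at 37 °C in the dark, then glutathione donor and nickel acceptor beads were added for 1 h before AlphaScreen reading.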
Active calls of the source: *; u = inconclusive; x = not tested or not shown; & = joins results of further samples; [ ] = another dose, or the depositor's remark.

Results follow in this order: Six1-Eya2 inh, D2 PAM, CtBP-E1A blk, Sfp inh, PINK1 modulator, TRPV1 potentiator, D2 agonist
> CCN(Cc1cc2ccccc2[nH]c1=O)S(=O)(=O)c1ccc(OC)cc1
→ 6, -6, 3, 1%, 2.3%, -4, 0.3
> Cc1ccc(S(=O)(=O)NC(=O)N2CCN(Cc3c(F)cccc3Cl)CC2)cc1
→ 0, -8, -1, 6%, -3.1%, -5, -3.6
> Cn1ccnc1SCC(=O)Nc1cc(C(F)(F)F)ccc1N1CCOCC1
→ 0, -10, 4, 19%, 3.5%[38.3 µM], -27, -3.1
> CC1CCN(C(=O)CCNS(=O)(=O)c2ccc3c(c2)c(=O)n(C)c(=O)n3C)CC1
→ -6, 1, -17, 11%, -0.6%, -1, 3.0
> Cc1cccc(Nc2nc(-c3ccc(F)cc3)cs2)n1
→ 17, -4, -24, -26%, 14%, -17, 2.8
> CC(C)(C)OC(=O)NNC(=O)c1cccs1
→ 4, -3, -5, 10%, -0.1%, 13, -2.2
> CC(=O)N1CCCc2cc(S(=O)(=O)CCC(=O)N3CCN(c4ccccc4)CC3)ccc21
→ -7, -9, 1, 8%, 1.1%, 25, -6.0
> CCOC(=O)C1(O)CC(C)=NN1C(=O)c1cccc(Cl)c1 (stereo unspecified)
→ -5, 5, 1, 0%, 1.6%, -4, -3.8
> CCOC(=O)N1CCN(c2nc(C)cc(C(F)(F)F)n2)CC1
→ 1, -8, 3, 2%, 0.7%, -21, -3.9
> COCCNC(=O)c1nc2ccccc2s1
→ 1, 1, 8, 7%, 0.7%, -1, 1.7
> COc1ccc(CNC(=O)C/C(C)=N/NC(=O)COc2ccc(C)cc2Br)cc1
→ 1, -17, 0, 15%, 13%, 3, -4.7
> O=C(Oc1ccc2ccc(OC(=O)N3CCOCC3)cc2c1)N1CCOCC1
→ 4, 3, -1, 16%, 0.0%, 3, -3.2
> O=C(NCC1CCOCC1)c1cccc2c(-c3cccnc3)coc12
→ -12, -17, -23, x, 0.0%, x, -4.7
> Cc1c(N2C(=O)CSC23C(=O)Nc2ccccc23)c(=O)n(-c2ccccc2)n1C (stereo unspecified)
→ -1, 0, 0, 5%, -2.7%[38.3 µM], 17, -1.0
> CCOc1ccc(Cc2n[nH]c(=S)n2Cc2ccccc2)cc1
→ -7, -10, x, 2%, -1.6%, -4, u
> O=C(NC(=S)Nc1cccnc1)c1ccccc1
→ 2, -14, -4, 79µM*, 0.7%, u, -5.8
> Fc1ccc(N2CN(Cc3cccnc3)CNC2=S)cc1
→ 8, 0, -7, 21%, -0.3%, 2, -3.3
> Cc1ccc(NS(=O)(=O)c2cc(C(=O)OCC(=O)NCC3CCCO3)ccc2C)cc1 (stereo unspecified)
→ 5, -5, -9, 1%, 1.9%, 14, -0.2
> C/C(=C\C(=O)N1CCc2ccccc21)C(=O)O
→ 6, 2, 5, 16%, 2.5%, 14, 0.6
> Cc1cc([N+](=O)[O-])nn1CC(=O)N(C)Cc1ccccc1
→ 8, -4, 2, 2%, 0.0%, 0, -2.7
> Cc1noc(C)c1C(=O)Nc1nc2ccc(S(C)(=O)=O)cc2s1
→ -1, -6, -2, 16%, 2.8%, 0, -4.8
> CCc1nc2ccc(C(=O)N(C)CCN(C)C)cn2c1N(C)CCC(C)C
→ 0, -9, 7, x, -1.2%, x, 3.2
> O=c1ccc(Cc2ccc(Cl)cc2)n[nH]1
→ 5, -3, 0, 16%, 1.3%, 2, 3.5
> CC(Oc1ccc(F)cc1)C(O)CCN(C)C (stereo unspecified)
→ 3, -3, 11, 13%, 0.5%, -21, -8.7
> CCc1nc2ccc(C(=O)NCc3ccc(OC)cc3)cn2c1N(C)C(=O)Cc1ccccc1
→ -21, -9, -6, x, 2.7%, x, -5.9
> CS(=O)(=O)Cc1ccc(C(=O)N2CCN(C(=O)c3cccs3)CC2)cc1
→ 12, -5, 2, x, -0.6%, x, -3.3
> CCN(CC(=O)Nc1ccc(NC(C)=O)cc1)C(=O)CSCc1c(C)noc1C
→ -2, -2, -1, x, -0.1%, 3, 0.5
> COc1ccccc1CC(=O)NNS(=O)(=O)c1ccc([N+](=O)[O-])cc1
→ 0, -1, -5, 9%, -0.2%, 5, 2.0
> COc1ccc(OC)c(C(c2nnnn2C(C)(C)C)N2CCc3ccccc3C2)c1 (stereo unspecified)
→ -11, -17, -17, 6%, 9.0%, x, -2.7
> CCN1CCN(CCCNC(=O)CS(=O)(=O)Cc2nc(-c3ccccc3C)oc2C)CC1
→ -8, -20, -7, 14%, 0.6%&-0.4%, 0, 0.1

A second format for part of the listing above.
SMILES | Six1-Eya2 inh | D2 PAM | CtBP-E1A blk | Sfp inh | PINK1 modulator | TRPV1 potentiator | D2 agonist
Cc1cc([N+](=O)[O-])nn1CC(=O)N(C)Cc1ccccc1 | 8 | -4 | 2 | 2% | 0.0% | 0 | -2.7
Cc1noc(C)c1C(=O)Nc1nc2ccc(S(C)(=O)=O)cc2s1 | -1 | -6 | -2 | 16% | 2.8% | 0 | -4.8
CCc1nc2ccc(C(=O)N(C)CCN(C)C)cn2c1N(C)CCC(C)C | 0 | -9 | 7 | x | -1.2% | x | 3.2
O=c1ccc(Cc2ccc(Cl)cc2)n[nH]1 | 5 | -3 | 0 | 16% | 1.3% | 2 | 3.5

(list continues)
Results follow in this order: Six1-Eya2 inh, D2 PAM, CtBP-E1A blk, Sfp inh, PINK1 modulator, TRPV1 potentiator, D2 agonist
> CCC(C)c1ccc(O)c(N)c1 (stereo unspecified)
→ 2, u, 2, 50µM*, -20%[38.3 µM], -7, 8.7
> CC(Nc1nc(-c2ccc(F)cc2)cs1)c1nc2cc(Cl)c(N3CCCCC3)cc2n1CCOCCO (stereo unspecified)
→ -6, -4, -7, x, 2.9%, x, -1.6
> Cc1cc(C)n(CCC(=O)N/N=C/c2ccc(O)cc2)n1
→ -8, -16, 3, -9%, 0.1%, -4, 1.3
> c1ccc(C2=NNC(=NCc3ccc4c(c3)OCO4)SC2)cc1
→ -29, -6, 6, -14%, 4.8%, 14, 1.2
> Cc1ccc(S(=O)(=O)c2nc(S(C)(=O)=O)sc2N2CCOCC2)cc1
→ 4, -3, 9, 8%, -2.0%, 7, 3.4
> Cc1ccc(C(=O)Nc2cccc(C(O)c3ccccc3)c2)cc1 (stereo unspecified)
→ 12, -1, 1, x, 2.2%, x, -3.4
> CC(C)C(c1nnnn1Cc1ccccc1)N(CCCO)Cc1cc2cc3c(cc2[nH]c1=O)OCO3 (stereo unspecified)
→ -12, -26, -22, -23%, -1.9%, -10, 0.1
> Cc1ccc(CNc2cc(C(=O)O)ccc2C)s1
→ -4, -3, 0, 11%, 2.7%, 7, -3.8
> CN(Cc1cc(Cl)cc(Cl)c1)[C@H]1C[C@H]2c3[nH]c4ccccc4c3CCN2C(=O)[C@H]1CO
→ -4, 1, -8, x, 45µM*, x, -2.0
> O=C(O)c1ccc(-c2nnc(-c3ccccc3)o2)cc1
→ -4, -2, 0, 21%, -1.7%, 7, 0.4
> COc1ccc(S(=O)(=O)N2CC(C(=O)O)Oc3ccc(Cl)cc32)cc1 (stereo unspecified)
→ 4, -5, 0, 12%, 2.2%, 24, 6.9
> CN1/C(=C/C(=O)CSc2ccccc2C(=O)O)C(C)(C)c2ccccc21
→ 1, -13, -1, 89µM*, 1.9%, 5, -3.4
> Cc1c(N)cc2c(c1N)C(C)(C)CC2(C)C
→ 1, 21, 2, x, 0.4%, x, 13
> CCC(Sc1nc(-c2ccccc2)c(-c2ccccc2)[nH]1)C(=O)O (stereo unspecified)
→ 0, 1, -5, 15%, 2.6%, -5, -0.8
> CC(=O)Nc1ccc(NC(=O)C(C)n2nc([N+](=O)[O-])c(Br)c2C)cc1 (stereo unspecified)
→ -14, -9, 9, 12%, 2.7%[38.3 µM], -3, -3.0
> Cc1csc(=O)n1CCC(=O)N(C)Cc1c(F)cccc1Cl
→ -3, -3, 4, x, -0.4%, x, 5.0
> CCCS(=O)(=O)C/C(N)=N/OC(=O)c1ccccc1Cl
→ 7, 2, 0, -18%, -2.1%, u, -0.8
> CCSc1nnc(NC(=O)c2ccc(S(=O)(=O)N(C)C)cc2)s1
→ 4, -7, -21, 10%, 0.6%, -3, -0.4
> COc1ccc(CCC(=O)NCC2CCCCC2)cc1OC
→ -2, -4, 14, 8%, 0.5%, -15, -2.7
> COc1cc(S(=O)(=O)N(Cc2cccs2)CC2CCCO2)ccc1-n1cnnn1 (stereo unspecified)
→ 5, -7, 12, 2%, -0.6%[38.3 µM], 1, 0.2
> Cc1cc(NC(=O)c2cccs2)ncc1NC(=O)C(C)C
→ -10, -8, 9, 5%, -1.8%, -28, -6.1
> COc1cccc(CNC(=O)c2cccnc2Sc2ccccc2)c1
→ 0, 2, 4, 6%, -1.2%, 20, -1.3
> O=C(/C=C/c1cccc(F)c1)OCC(=O)N1CCCc2ccccc21
→ 1, -19, -14, x, 0.1%, 23, -2.1
> CN1CCC[C@H]1CCNC(=O)c1c(-c2ccsc2)sc2ccccc12
→ 12, -15, 4, x, -0.7%, x, -1.8
> COc1ccccc1NS(=O)(=O)c1cccc2nsnc12
→ -5, 1, -2, 4%, -3.0%, -4, 1.2
> COc1ccc(S(=O)(=O)NCCSc2ccc(Cl)cc2)cc1OC
→ 2, -1, 6, 4%, 1.7%[38.3 µM], -13, 1.4
> C/C(=N\O)c1c(C)c2ccccc2n1C
→ -6, -4, -2, 3%, -1.0%, 7, -1.7
> Oc1ccccc1Nc1nc(NCC2CCCO2)c2ccccc2n1 (stereo unspecified)
→ -16, -4, 0, -12%, 0.7%, -14, -4.4
> C/C(=N\NC(=S)NCc1ccccc1)c1ccc(Cl)cc1
→ -16, -33, -12, 10%, 6.4%, u, -4.9
